# HNF4A DNA FP = change in binding of human HNF4A to DNA, primary screen, biochemical, fluorescence polarization, FITC-DNA | Hepatocyte nuclear factor 4-alpha (Homo sapiens), P41235 | 1 h | activity change, % at 10 µM | actives 0.3% (n = 360,000) | AID 1224865, 2016; in the data active = activity change above about 30%, passing the limit was not always enough;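 also: controls were the assay level and a saturating level of protein; the project sought stronger binding though the title names inhibitors; some compounds called inactive have numbers as strong as hits; positive values seem to mean higher polarization but the record does not say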
# Target sequence (P41235 whole entry, looked up): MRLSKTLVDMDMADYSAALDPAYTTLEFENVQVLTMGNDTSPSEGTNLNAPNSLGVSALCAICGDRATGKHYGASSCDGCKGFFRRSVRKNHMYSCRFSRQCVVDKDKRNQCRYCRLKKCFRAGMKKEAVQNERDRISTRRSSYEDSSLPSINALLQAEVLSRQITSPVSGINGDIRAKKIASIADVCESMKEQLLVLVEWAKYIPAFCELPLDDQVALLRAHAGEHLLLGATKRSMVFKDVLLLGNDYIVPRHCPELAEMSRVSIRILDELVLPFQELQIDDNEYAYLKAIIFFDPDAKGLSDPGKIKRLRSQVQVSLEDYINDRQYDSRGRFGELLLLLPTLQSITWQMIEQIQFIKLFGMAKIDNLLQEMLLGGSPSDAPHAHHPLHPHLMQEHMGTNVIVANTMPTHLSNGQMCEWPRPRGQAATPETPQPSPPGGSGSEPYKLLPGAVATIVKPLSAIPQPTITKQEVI
# E coli growth = E. coli growth inhibition, primary screen, OD600 | Escherichia coli growth, 23 h; active compounds read low | OD600 absorbance (concentration not given with the values) | actives 0.21% (n = 330,000);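 active = OD600 absorbance below the run mean of sample wells minus 3.6 SD, in any replicate, cut at about 0.56 in these data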;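 also: stock transfer was 300 nL into about 60 µL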
# FGF22 binding = binders of human FGF22 protein, primary screen, FGF22 synaptogenesis inhibitor project, biophysical, thermal shift, single point | Fibroblast growth factor 22 (Homo sapiens), Q9HCT0 | recombinant FGF22 thermal shift, SYPRO orange fluorescence; percent of sucrose octasulfate shift, DMSO zero | calls only at 9.99 µM | actives 1.5% (n = 340,000);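 active = melting point raised past a set limit in the mean and every replicate; three in four hits are not shown here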
# ALR inh = inhibitors of human ALR sulfhydryl oxidase, primary screen, biochemical, H2O2 detection, HRP-luminol luminescence, single point; FAD-linked sulfhydryl oxidase ALR (Homo sapiens), P55789; purified ALR, DTT oxidation; inhibition, % (no concentration beside the values); actives 3.8% (n = 290,000);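 active = mean and each replicate at 75% or more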;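 also: stock transfer was 7.5 nL into about 7.5 µL; 0% = neutral wells and 100% = wells with inactivated enzyme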
# Target sequence (P55789 whole entry, looked up): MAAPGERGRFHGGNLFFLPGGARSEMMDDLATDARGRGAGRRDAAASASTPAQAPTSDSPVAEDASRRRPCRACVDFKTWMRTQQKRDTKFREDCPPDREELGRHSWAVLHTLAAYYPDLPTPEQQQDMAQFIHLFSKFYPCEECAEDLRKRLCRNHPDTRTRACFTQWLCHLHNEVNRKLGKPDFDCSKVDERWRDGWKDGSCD
# UCH37 inh = inhibitors of human UCH37 deubiquitinase, primary screen, biochemical, Ub-AMC cleavage, fluorescence. purified proteasome/UCH37. Ubiquitin carboxyl-terminal hydrolase isozyme L5 (Homo sapiens), Q9Y5K5. inhibition, % (concentration not given with the values). AID 588478, 2011. actives 0.33% (n = 330,000);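 active = mean of two replicates above 20%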;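 also: 0% = compound-free wells with enzyme and 100% = wells lacking proteasome; stock transfer was 100 nL into about 20 µL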
# Target sequence (Q9Y5K5 whole entry, looked up): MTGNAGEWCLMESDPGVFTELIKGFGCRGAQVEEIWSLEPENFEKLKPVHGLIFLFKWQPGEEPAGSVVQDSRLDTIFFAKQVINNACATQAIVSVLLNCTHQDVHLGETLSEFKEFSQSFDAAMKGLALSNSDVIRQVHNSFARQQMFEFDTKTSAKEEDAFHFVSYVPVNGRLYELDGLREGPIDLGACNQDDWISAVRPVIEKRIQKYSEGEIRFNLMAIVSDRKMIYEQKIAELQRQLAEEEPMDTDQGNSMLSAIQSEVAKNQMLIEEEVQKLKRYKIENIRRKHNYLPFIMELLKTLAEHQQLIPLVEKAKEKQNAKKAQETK
#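 Material: human UCH37 enzyme supplied as purified proteasome complex. Measure: % inhibition of Ub-AMC cleavage fluorescence. Medium: pH 7.4 Tris-HCl (50 mM) with ovalbumin, ATP-MgCl2, DTT. Times: 30 min preincubation with enzyme, 25 min cleavage at room temperature. Detection: AMC fluorescence intensity at 355/460 nm.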
# B2AR ag = beta2AR agonists driving receptor internalization, primary screen, cell-based, FAP fluorogen, flow cytometry; Beta-2 adrenergic receptor (Homo sapiens), P07550; response, % (test concentration not listed); actives 0.43% (n = 340,000); Am2.2-beta2AR cells; reference of the scale not given here;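 active = response above a set limit, near 3 SD of response in nonfluorescent compounds, cut at about 42% in these data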;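 also: stock transfer was 100 nL into about 11 µL; a reference agonist was the positive control; negative values mostly stem from fluorescent compounds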
# rRNA inh HTS = reduced GFP signal of wild-type E. coli, primary screen, bacterial rRNA inhibitor project, GFP/RFP fluorescence, OD600, single point. E. coli WT GFP vs humanized-ribosome RFP mutants, 24 h; active compounds read low; DMSO median 0, no signal -100. actives 1.6% (n = 350,000). GFP signal change (wild-type ribosome), % (concentration not given with the values);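 active = significant combined selectivity score with lowered wild-type GFP, culture density cut under 30%, mutant RFP and density less affected; inactive = any of these conditions unmet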; also: one replicate is shown; some compounds called inactive have numbers as strong as hits
# rRNA inh HTS OD600 = further read-out of rRNA inh HTS, marked with its call; OD600 change, %; measured here: OD600 growth;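 optical density of the mix in the first replicate; 0 = DMSO median and -100 = no signal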
# rRNA inh HTS RFP = also measured in rRNA inh HTS; calls as there; RFP signal change, %; measured here: RFP humanized mutant strains;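 first replicate; 0 = DMSO median and -100 = no signal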
# The depositor's hits bear a star; i = inactive; nt = not tested or not shown; + = active, no number; & = joins results of further samples.
SMILES,HNF4A DNA FP,E coli growth,FGF22 binding,ALR inh,UCH37 inh,B2AR ag,rRNA inh HTS,rRNA inh HTS OD600,rRNA inh HTS RFP
COc1ccc(CC(=O)N(Cc2ccccc2)C(C)C)cc1,-0.2,0.68,i,nt,5.0,-2,-10,-4,1.0
CC(C)n1c(SCC(=O)NC2CC2)nnc1-c1ccco1,-0.1,0.69,i,-9,1.9,0,8,2,0.1
CCn1c(Cn2nnc(-c3ccccc3)n2)nnc1SCC(=O)Nc1cccc(C)c1C,-0.2,0.71,nt,-2,4.8,-6,nt,nt,nt
Cc1cccc(C(=O)N=c2c(C#N)cc3c(=O)n4cccc(C)c4nc3n2Cc2ccco2)c1,-26&-2.1,0.71,nt,nt,-200,10&10,-16,-24,-3.2
COc1cccc(C2c3[nH]c4ccccc4c3CCN2Cc2cccc(C)n2)c1 (configuration not stated),-0.7,0.72,i,-6,1.2,24,10,-16,13
CCOC(=O)CSC1=C(C#N)C(c2ccccc2)C(C(C)=O)=C(C)N1 (configuration not stated),-1.3,0.68,nt,-8,-2.8,5,nt,nt,nt
COc1ccc(Cn2nnnc2CN(Cc2cc3cc(C)ccc3[nH]c2=O)C2CCCC2)cc1,3.0,0.66,i,3,4.8,-2,21,3,5.9
COc1ccc(NC(=O)c2ccc(-n3cccn3)c([N+](=O)[O-])c2)cc1,-5.2,0.66,nt,-3,4.1,3,-6,0,0.9
COc1cc(CC(NC(C)=O)C(=O)NC2CCN(C(=O)Nc3ccc(C)cc3)CC2)cc(OC)c1 (configuration not stated),2.3,nt,i,nt,nt,-1,2,2,-2.0
CCOC(=O)C1C(=O)CC(C)(O)C(C(=O)OCC)C1c1cc(Br)ccc1OC (configuration not stated),0.4,0.74,nt,-24,2.3,-6,nt,nt,nt
CCN(CC)CCn1c(NS(=O)(=O)c2ccc(Cl)cc2)nc2ccccc21,5.1,0.67,i,nt,2.3,13,3,4,-0.6
O=C(Cc1ccccc1)Nc1ccc(NC(=O)c2ccco2)cc1Cl,-2.3,0.76,i,-11,1.0,-17,13,13,3.4
CC(=O)N(Cc1ccc(F)cc1)C1=C(NCCc2ccccc2)C(=O)c2ccccc2C1=O,3.7,0.72,nt,nt,20,-4,nt,nt,nt
CCCCC1=NN(C(=O)c2cccnc2)C(O)(C(F)(F)F)C1 (configuration not stated),-2.0,0.71,i,-16,1.8,-2,10,6,1.7
CN(C)c1nc(SCCOC(=O)Nc2ccccc2)nc(N(C)C)n1,0.1,0.64,nt,-17,2.1,-4,nt,nt,nt
O=C(Nc1ccc(NC(=O)c2cccs2)cn1)c1ccco1,-3.4,0.66,nt,1,-2.1,22,nt,nt,nt
CCN(CC)CC(O)CN(c1ccccc1)S(=O)(=O)c1ccc2ccccc2c1 (configuration not stated),1.5,0.63,i,-3,1.9,-18,9,3,3.4
Cc1cc(OCC(=O)NCc2ccccn2)c2c(C)c(Cc3ccccc3)c(=O)oc2c1,0.4,0.7,i,0,-11,-5,-2,7,-0.2
O=C(O)CSCC(=O)N1N=C2/C(=C/c3ccccc3)CCCC2C1c1ccccc1 (configuration not stated),-0.9,0.68,i,0,-3.2,5,-6,1,8.9
COc1ccc(N(CC(=O)N/N=C/c2ccc(F)cc2)S(=O)(=O)c2ccccc2)cc1,5.1,nt,i,-14,nt,10,-12,0,5.7
Cc1ccc(C(C)C)c(OCC(=O)Nc2ccc3c(c2)nc(CN2CCCC2)n3C)c1,9.4,0.68,nt,-6,2.4,3,nt,nt,nt
CC(C)C1C(=O)N(Cc2cn(Cc3ccco3)nn2)CCS(=O)(=O)N1Cc1ccc(-c2ccc(Cl)c(Cl)c2)cc1 (configuration not stated),2.5,nt,i,nt,nt,nt,9,11,3.1
CC(=O)NCC1(O)CCCC(C)C1 (configuration not stated),2.9,0.7,i,-3,1.6,-7,13,2,3.8
CN(C)c1nc(N)nc(-c2cccnc2)n1,1.9,0.76,nt,-22,1.1,-5,nt,nt,nt
COc1ccc(OC)c2[nH]c(=O)c(CCNC(=O)C(C)C)cc12,0.9,0.76,i,-19,-0.4,2,-4,5,-3.7
# (continued)
SMILES,HNF4A DNA FP,E coli growth,FGF22 binding,ALR inh,UCH37 inh,B2AR ag,rRNA inh HTS,rRNA inh HTS OD600,rRNA inh HTS RFP
COc1cc(C(=O)NCC2(N(C)C)CCCCC2)ccc1OCc1ccccc1,2.1,0.67,nt,-7,1.8,-7,4,6,0.5
CCOc1ncnc2c1sc1nc(C)cc(C)c12,-1.5,0.71,i,-6,2.2,-30,6,11,0.9
Cc1ccc(C)c(C(=O)O/N=C(\N)c2ccc(Br)cc2)c1,-0.5,0.73,nt,14,5.6,5,nt,nt,nt
COc1ccc(OC)c2c1sc(=NC(=O)c1ccco1)n2C,-0.8,0.78,i,-19,-2.0,4,-2,9,-5.0
O=[N+]([O-])c1cc(Br)c(O)c(/C=N/Nc2nnnn2-c2cccc3ccccc23)c1,1.2,nt,nt,15,nt,-1,nt,nt,nt
COc1cc(OC)c(OC)cc1CCC(C)NC(=O)Cc1ccccc1 (configuration not stated),-5.3,0.68,i,4,0.6,-1,6,6,2.3
COC(=O)c1ccc(=O)n(Cc2ccco2)c1,-5.1,0.74,nt,1,-12,3,nt,nt,nt
COCCNC(=O)C(c1cccs1)N(CCc1ccccc1)C(=O)Cn1nnc2ccccc21 (configuration not stated),2.7,0.68,nt,7,0.6,-1,nt,nt,nt
O=C(COC(=O)c1cccc(S(=O)(=O)NCc2ccccc2)c1)c1ccc2c(c1)OCCO2,-1.2,0.72,i,2,3.8,1,-15,-20,2.2
CCCC(=O)N1CCC1(C)C(=O)NCc1ccccc1SC (configuration not stated),7.3,nt,i,nt,nt,nt,1,11,0.1
NNC(=O)c1ccc(CSc2cccc3cccnc23)cc1,0.3,0.72,i,-6,-93,-5,-6,2,3.4
CC(=O)c1ccc(S(=O)(=O)Nc2cccc(-n3cnnn3)c2)cc1,-13,0.72,i,-3,3.9,-79,2,-3,-2.5
COc1cc(CCC(=O)OCC(=O)NC2CCCC(C)C2C)cc(OC)c1OC (configuration not stated),-5.6,0.74,i,-2,-0.4,3,-11,-8,-0.2
CCc1cccc(CC)c1NC(=O)COC(=O)CCc1cc(OC)c(OC)c(OC)c1,-0.8,0.67,nt,nt,1.5,4,nt,nt,nt
O=c1oc2ccccc2n1CCCOc1ccccc1,1.7,0.77,i,-3,5.5,10,0,-8,-3.0
CCOC(=O)C1CCCN(C(=O)c2ccc(-c3ccc([N+](=O)[O-])cc3)o2)C1 (configuration not stated),-0.5,0.67,i,6,8.3,0,-18,-22,-1.8
C[C@H](/C=C/[C@@]1(O)[C@H](C)C[C@H](O)CC1(C)C)O[C@@H]1O[C@H](CO)[C@@H](O)[C@H](O)[C@H]1O,-6.8,0.67,i,-9,3.6,4,nt,nt,nt
CCCCCCC[N+](CC)(CC)CCCCc1ccc(Cl)cc1,-2.6,0.63,i,6,3.3,0,nt,nt,nt
COc1cccc(/C=N/NC(=O)CC(=O)NCCc2ccccc2)c1OC,2.2,nt,nt,-6,nt,-2,nt,nt,nt
COCCN(CC(=O)NCc1ccc(OC)cc1)C(=O)CCC(=O)Nc1nccs1,-1.1,0.75,nt,4,2.7,-1,nt,nt,nt
O=C(Cc1ccccc1F)Nc1nc(-c2ccc(F)cc2)cs1,-1.7,0.66,i,-2,3.7,8,-54,-76,-15
C=C(C)Cn1c2ccc(NC(=O)NCCc3ccccc3)cc2c(=O)n1C,-3.4,nt,i,nt,nt,nt,-8,-15,-4.2
CCCNC(=O)c1ccc2c(c1)ncn2-c1cc(C)cc(C)c1,-2.9,0.64,i,1,-0.4,-9,-26,-28,-3.1
CCNC(=S)NNC(=O)c1cc(-c2cc(C)ccc2C)nc2ccccc12,-0.5,0.72,i,34,2.5,0,-27,-45,-20
CC(C)(C)NS(=O)(=O)c1ccc2c(c1)oc(=O)c1cc(S(=O)(=O)NC(C)(C)C)ccc12,2.5,0.65,nt,19,-0.1,6,nt,nt,nt
# Following part:
SMILES,HNF4A DNA FP,E coli growth,FGF22 binding,ALR inh,UCH37 inh,B2AR ag,rRNA inh HTS,rRNA inh HTS OD600,rRNA inh HTS RFP
O=C(CSc1nnnn1C1CCCCC1)N1CCN(C(=O)c2ccco2)CC1,3.0,0.7,i,nt,2.6,-7,-3,-5,0.3
COc1ccc(C(=Cc2cc(OC)c(OC)cc2[N+](=O)[O-])C(=O)O)cc1,3.6,0.69,i,nt,3.6,3,-4,1,-1.6
CC(C)CCNc1nc(N)c([N+](=O)[O-])c(NCCO)n1,5.6,0.69,i,-1,12,1,-3,-5,3.1
Cc1cccc(CSc2nc3nc(C)cc(C)n3n2)c1,1.8,0.67,i,-24,1.2,-12,3,-5,-0.1
OC(CN1CCN(c2ccccc2)CC1)Cn1c2ccccc2c2ccccc21 (configuration not stated),3.1,0.76,nt,-3,1.9,5,nt,nt,nt
COc1ccc(S(=O)(=O)Nc2cc(C)on2)cc1NC(C)=O,-1.4,0.72,i,-8,2.4,-2,11,10,-1.7
O=C1C(=O)N(CCCc2ccccc2)c2ccccc21,-5.5,0.69,nt,25,0.7,3,nt,nt,nt
CCC1(C)CC(C(CC(=O)O)c2ccc(C)cc2)CCO1 (configuration not stated),5.1,0.71,nt,-13,4.1,0,nt,nt,nt
CC(C(=O)N=c1sc2ccccc2n1C)N1C(=O)C2CC=CCC2C1=O (configuration not stated),-1.9,0.73,nt,-11,2.1,-13,nt,nt,nt
CC(C)Nc1nc(-c2cccnc2)nc(-c2ccccc2)c1C#N,-0.4,0.7,i,-2,-13,3,14,10,2.0
OCC[C@H]1C[C@@H](O)[C@H](O)[C@@]2(CCCc3ccccc3O2)O1,0.3,nt,i,nt,13,6,11,4,-6.1
COc1cc(C=O)ccc1OCc1c(C)noc1C,2.0,0.72,nt,-8,-1.1,5,nt,nt,nt
O=C(O)Cn1cc(/C=N/NC(=O)c2cc3cc(Br)ccc3o2)c2ccccc21,-1.9,nt,+,6,nt,-7,4,-1,0.0

# An excerpt of these results, with values under each structure:
# Each structure is followed by: HNF4A DNA FP | E coli growth | FGF22 binding | ALR inh | UCH37 inh | B2AR ag | rRNA inh HTS | rRNA inh HTS OD600 | rRNA inh HTS RFP
OC(CN1CCN(c2ccccc2)CC1)Cn1c2ccccc2c2ccccc21 (configuration not stated)
 : 3.1 | 0.76 | nt | -3 | 1.9 | 5 | nt | nt | nt
Cc1cccc(CSc2nc3nc(C)cc(C)n3n2)c1
 : 1.8 | 0.67 | i | -24 | 1.2 | -12 | 3 | -5 | -0.1
CC(C)Nc1nc(-c2cccnc2)nc(-c2ccccc2)c1C#N
 : -0.4 | 0.7 | i | -2 | -13 | 3 | 14 | 10 | 2.0
O=C(CSc1nnnn1C1CCCCC1)N1CCN(C(=O)c2ccco2)CC1
 : 3.0 | 0.7 | i | nt | 2.6 | -7 | -3 | -5 | 0.3
O=C(O)Cn1cc(/C=N/NC(=O)c2cc3cc(Br)ccc3o2)c2ccccc21
 : -1.9 | nt | + | 6 | nt | -7 | 4 | -1 | 0.0
COc1ccc(C(=Cc2cc(OC)c(OC)cc2[N+](=O)[O-])C(=O)O)cc1
 : 3.6 | 0.69 | i | nt | 3.6 | 3 | -4 | 1 | -1.6

# A portion of the library; count on the stated rates, not on these rows.
